# Screens: PubChem BioAssay, Broad Institute
# STK33 kinase inh – blocks human STK33 kinase activity; inhibition, % at 10 µM; 320,000 tested, 0.073% active; purified STK33, MBP phosphorylation, ADP-Glo luminescence; AID 2661;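 active means inhibition at or above 25%, using the most active replicate where run in duplicate; inactive means inhibition below 25%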
# Target sequence (Q9BYT3 whole entry, looked up): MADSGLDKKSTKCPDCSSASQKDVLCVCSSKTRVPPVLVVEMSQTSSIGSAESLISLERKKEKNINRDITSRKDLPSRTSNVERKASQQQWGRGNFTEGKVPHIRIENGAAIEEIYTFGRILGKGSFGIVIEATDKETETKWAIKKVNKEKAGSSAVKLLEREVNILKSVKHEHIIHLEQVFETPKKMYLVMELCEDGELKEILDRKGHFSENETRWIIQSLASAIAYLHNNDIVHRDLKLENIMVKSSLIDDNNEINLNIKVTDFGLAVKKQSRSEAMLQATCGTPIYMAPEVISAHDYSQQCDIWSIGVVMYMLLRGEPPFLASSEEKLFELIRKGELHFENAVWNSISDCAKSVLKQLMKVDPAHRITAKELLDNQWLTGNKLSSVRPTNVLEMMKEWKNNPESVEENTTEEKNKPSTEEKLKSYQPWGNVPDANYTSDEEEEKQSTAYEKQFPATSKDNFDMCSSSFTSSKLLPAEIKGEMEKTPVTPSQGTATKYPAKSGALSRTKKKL
# * marks the source's active call; other numbers are inactive results.
compound	STK33 kinase inh
O=C(Nc1ccc(Cl)cc1)N(Cc1cccs1)Cc1cccs1	-0.2
CC1CCCCN1CCNC(=O)C1CCN(S(=O)(=O)c2cccc3cccnc23)CC1 (stereo not drawn)	-0.4
Cc1ccc(C(=O)N/N=C/c2ccc(-c3ccccc3[N+](=O)[O-])o2)cn1	1.2
Cc1ccc2c(c1)c(C)c(C)n2CC(O)Cn1nc(C)c(Br)c1C (stereo not drawn)	0.0
COc1ccc(NC(=O)c2ccccc2C)c(OC)c1	0.2
CCN(CC)CCN(Cc1cc2cc3c(cc2[nH]c1=O)OCCO3)C(=S)NCC1CCCO1 (stereo not drawn)	1.5
Nc1c(C(=O)N/N=C/c2ccc(Cl)cc2)cnn1-c1ccccc1	0.2
Cc1ccccc1Nc1nnc(C)c(=O)n1N	-0.4
COc1ccc(NS(=O)(=O)c2cc(N)ccc2N2CCCC2)cc1	-0.7
Fc1ccc(-c2nc3nc4ccccc4nc3n2Cc2ccco2)cc1	4.7
CCCNC(=S)N1CCC(Cc2ccccc2)CC1	-1.0
Cc1ccc2nc(-c3ccccn3)[nH]c2c1	2.5
COc1ccc(OC)c(NC(=O)c2oc3c(c2C)C(O)CC(C)(C)C3)c1 (stereo not drawn)	-0.6
CCC1(C)Cc2c(sc3nc(NN)n(C)c(=O)c23)CO1 (stereo not drawn)	1.3
O=C(C/C=N\OCc1ccc(Cl)cc1Cl)Nc1ccccc1	3.1
COc1ccc(C2CC(c3cccs3)=NN2S(=O)(=O)c2ccc(C)cc2)cc1 (stereo not drawn)	0.1
Cc1cc(NC(=O)C(C)N2C(=O)c3ccccc3S2(=O)=O)no1 (stereo not drawn)	-0.1
Cc1ccc2cc(CN(c3cccc(C)c3C)S(=O)(=O)c3ccccc3)c(=O)[nH]c2c1	-2.2
O=C(c1ccccc1)N1CC(COc2ccccc2)OC(c2cccnc2)O1 (stereo not drawn)	0.1
Cc1oc(-c2ccccc2F)nc1CS(=O)(=O)CC(=O)NCCCN1CCN(C)CC1	0.1
Cc1ccc(Cl)cc1Nc1nc(-c2sc(NC(=O)c3ccccc3)nc2C)cs1	1.3
COc1ccc(CCNC(=O)c2cc(S(=O)(=O)N(C)c3ccccc3)ccc2Cl)cc1	-0.4
Cc1nn(-c2ccccn2)c(N)c1N=O	2.4
OC1(c2ccccc2F)CCN(Cc2nnc(-c3ccccc3)o2)CC1	-1.0
CCOc1cc(N2CCOCC2)c(OCC)cc1NC(=O)C(NC(=O)c1ccco1)C(C)C (stereo not drawn)	-1.2
CCc1n[nH]c(=S)n1/N=C/c1ccc(NC(C)=O)cc1	-1.5
Cn1ncc(Br)c1NC(=O)Nc1ccc(OC(F)(F)F)cc1	0.1
O=C(NC(=S)NC1CCCC1)c1ccccc1Br	0.8
Cc1cccc(NS(=O)(=O)c2cccc(C(=O)NCC(c3ccco3)N3CCCCC3)c2)c1 (stereo not drawn)	-1.1
O=C(O)CC(c1ccccc1)N1C(=O)c2cccc([N+](=O)[O-])c2C1=O (stereo not drawn)	1.0
Cc1ccc(NC(=O)O/N=C/c2c(C)nn(C(C)(C)C)c2C)cc1Cl	0.4
COc1cc(C2c3c(oc4ccccc4c3=O)C(=O)N2c2ccc(C)cn2)ccc1O (stereo not drawn)	0.4
COc1ccc(NC(=O)Nc2nc3ccccc3s2)cc1	-0.3
C=CCNc1nnc(SCC(=O)N2CCCCC2)c2ccccc12	0.1
CCOC(=O)CSc1nnc(-c2cccc(Br)c2)o1	3.5
NC(=O)c1ccccc1NC(=O)CC12CC3CC(CC(Br)(C3)C1)C2	-0.9
Cc1ccc2c(c1)c1nnc(SCC(=O)NC3CC3)nc1n2C	-1.6
CCOC(=O)C1CCC(CNCc2ccc(Cl)cc2)CC1 (stereo not drawn)	-0.5
O=C(CSc1ccc(Cl)cc1)NC(=O)c1ccccc1	0.5
NS(=O)(=O)c1cccc2c1c([N+](=O)[O-])cc1nc(O)c(O)nc12	0.5

# Fetched one by one from above, 2 records:
compound	STK33 kinase inh
COc1ccc(NC(=O)Nc2nc3ccccc3s2)cc1	-0.3
CCOC(=O)C1CCC(CNCc2ccc(Cl)cc2)CC1 (stereo not drawn)	-0.5

# (cont.)
compound	STK33 kinase inh
COc1ccc(OC)c(C2/C(=C(\O)c3ccc4c(c3)OCCO4)C(=O)C(=O)N2CC2CCCO2)c1 (stereo not drawn)	-0.3
COc1ccc(N2CCN(S(=O)(=O)CCNC(=O)C3CC3)CC2)cc1	0.2
CCCCCCCC(=O)OCC(O)CO (stereo not drawn)	-0.8
COc1ccccc1NC(=O)C1CCCCC1	-1.0
CC(C)SCc1cc(N2CCCC2)nc(-c2ccccc2)n1	-0.4
COc1ccc(C(=S)N2CCN(C)CC2)cc1Br	-1.4
COc1ccccc1C(=O)NNC(=O)c1cccc(O)c1	1.3
CC(C)(C)c1ccc(C(=O)Nc2cccc3c(=O)[nH][nH]c(=O)c23)cc1	0.6
CCN(c1ccccc1)S(=O)(=O)c1cccc(C(=O)NCCN2CCOCC2)c1	-0.9
CC(NC(c1ccccc1)c1ccccc1)C(=O)N1CCCc2ccccc21 (stereo not drawn)	0.1
O=C(Cn1cccn1)c1ccccc1	-0.1
CCOC(=O)Cc1csc(NC(=O)COc2ccccc2)n1	-1.6
O=[N+]([O-])c1cccc(C2=NC(c3ccccc3)CO2)c1 (stereo not drawn)	-0.8
CCCNC(=O)c1ccc2c(c1)C1C3CCC(C3)C1C(c1ccccc1)N2 (stereo not drawn)	-1.4
CCOc1ccc(-c2nc(C#N)c(N3CCCCCC3)o2)cc1	-2.4
CCCC1=C(C(=O)OCC)C(c2ccc(OC)c(CSc3ccccn3)c2)C(C#N)=C(N)O1 (stereo not drawn)	-1.9
Cc1cc(OCCN2CCCC2)cc(C(C)C)c1	-2.5
S=C(Nc1ccccc1)Nc1ccc(Cl)cn1	-2.9
Cc1ccc(NC(=O)COc2ccc3oc4c(c3c2)CCCC4)nc1	-0.5
Cc1nc(-c2cccnc2)sc1C(=O)Nc1ccc(F)cc1F	0.5
COC(=O)CNC(=O)C1CCCN1C(=O)CNC(=O)OCc1ccccc1 (stereo not drawn)	-1.1
Cc1ccc(SCC(=O)NNC(=O)CNC(=O)c2ccc(Br)cc2)cc1	-1.5
O=C1CC(c2ccccc2)CC(O)=C1C=Nc1ccc(Cl)cc1 (stereo not drawn)	-0.8
Cn1c(Cc2ccccc2)nnc1SCC(=O)NC1CCCCC1	1.9
CC(C)N(C(=O)CSc1nnnn1-c1ccc2c(c1)OCO2)C(C)C	-1.5
O=CN1CCN(CC(O)Cn2c3ccccc3c3ccccc32)CC1 (stereo not drawn)	-1.5
Cc1ccc(C(C)(C)C)c(OCCN2CCCC2)c1	0.1
CC(CCN1CCN=C1N(C)C)c1ccccc1 (stereo not drawn)	-0.5
CCN(CCCn1c(=S)[nH]c2ncccc2c1=O)c1ccccc1	-0.7
COc1ccc2cc(C3NC(=O)c4ccccc4N3)c(Cl)nc2c1 (stereo not drawn)	-1.0
CCOC(=O)C1=C(C)N(CCCC(=O)O)C(=O)NC1c1cccs1 (stereo not drawn)	-0.4
CCn1nnnc1SCC(=O)Nc1cc(OC)cc(OC)c1	-1.7
O=C(COc1ccc([N+](=O)[O-])cc1)Nn1cnnc1	-0.1
COc1ccccc1OCCNC(=O)CCNC(=O)c1ccccc1OC	-0.8
CCCc1c(CC)c(=N)c2ccccc2n1C	-0.2
Cc1ccc(NC(=O)COC(=O)CSC(=S)N2CCOCC2)cc1	0.2
COc1ccc(CCNc2oc(COc3ccccc3)nc2C#N)cc1	0.4
CCNC(=S)SCCOc1ccc(C)cc1	-0.9
Cc1ccc(-c2nc3ncccc3o2)cc1NC(=O)c1cccs1	-1.2
CCOC(=O)/C(C#N)=C1/C=CN(c2ccccc2)C=N1	0.3

# Another view of part of the listing above:
STK33 kinase inh	mol
-0.8	COc1ccccc1OCCNC(=O)CCNC(=O)c1ccccc1OC
-0.9	CCNC(=S)SCCOc1ccc(C)cc1
-0.1	O=C(COc1ccc([N+](=O)[O-])cc1)Nn1cnnc1
0.4	COc1ccc(CCNc2oc(COc3ccccc3)nc2C#N)cc1
-1.7	CCn1nnnc1SCC(=O)Nc1cc(OC)cc(OC)c1

# Next compounds follow.
compound	STK33 kinase inh
CCC(C)N(C(=O)Cn1cnc2c1c(=O)n(C)c(=O)n2C)C1CCS(=O)(=O)C1 (stereo not drawn)	-0.7
O=C(O)c1cc(-c2cccs2)nn1-c1ccccc1	-1.9
COC(=O)C1(CC2CC(c3ccccc3)=NO2)CCN(C(=O)OC(C)(C)C)CC1 (stereo not drawn)	-1.3
COc1ccccc1OCCSc1nc(C)c(Cc2ccccc2)c(=O)[nH]1	0.4
Cc1csc(NC(=O)c2ccc(COc3ccccc3)o2)n1	0.0
COC(=O)c1ccc(/C=N/NC(=O)c2cccc(F)c2)cc1	0.1
COc1ccccc1NC(=O)Cn1c(=O)n(CCc2c[nH]c3ccccc23)c(=O)c2cccnc21	5.9
Nn1c(COc2ccc(Cl)cc2)n[nH]c1=S	0.2
COc1ccc2c(CC(=O)OCC(=O)Nc3ccccc3[N+](=O)[O-])coc2c1	-0.1
COCCCNC(=S)Nc1ccc(N2CCCCC2)cc1	-0.4
O=C(CN1C(=O)CCS(=O)(=O)c2ccccc21)Nc1cccc(Cl)c1	-1.0
Cc1cc(C)nc(/N=C(\N)Nc2cc([N+](=O)[O-])ccc2C)n1	-1.3
Cn1c(=O)c2c(nc(N3CCCCCC3)n2CCSc2nc3ccccc3o2)n(C)c1=O	-0.5
COc1cccc(NC(=O)CN(c2ccc(C)cc2)S(=O)(=O)c2c(C)nn(C)c2C)c1	-0.3
c1ccc(Nc2nn[nH]n2)cc1	0.2
CCCC(=O)NC1CCCc2c1cnn2-c1ccc(C)c(C)c1 (stereo not drawn)	-2.7
COc1ccccc1NC(=O)C(=O)NCC(c1ccco1)N1CCc2ccccc21 (stereo not drawn)	1.3
CCOC(=O)c1cnn(-c2nc(-c3ccc(F)cc3)cs2)c1C(F)(F)F	-1.9
O=C(CC(=O)c1ccccc1)Nc1ccc2c(c1)OCCO2	-0.4
CCOC(=O)c1[nH]c2ccc(OC)cc2c1NC(=O)N1CCOCC1	-1.4
O=[N+]([O-])c1cc(S(=O)(=O)N2CCCC2)ccc1N/N=C/c1ccccn1	-1.2
C/C(=N/OC(=O)c1ccc(Cl)cc1Cl)c1oc(C)nc1C	-0.6
CN(CC(=O)Nc1ccc(N2CCOCC2)cc1)CC(=O)Nc1ccccc1C#N	-3.4
COc1ccc(S(=O)(=O)N2CCC(C(=O)Nc3ccc(S(=O)(=O)N4CCCC4)cc3)CC2)cc1OC	-0.6
CC(=O)Nc1ccc2nc(-c3cccn3C)[nH]c2c1	-2.7
Cc1cc(C)c(OCC(=O)OCC(=O)NCC2CCCCC2)c(C)c1	0.2
O=C(COc1ccccc1C(=O)NCc1ccccc1)Nc1ccccc1	-0.7
COc1cc(C(=O)OCC(=O)N2CCCCCC2)c([N+](=O)[O-])cc1OC	-0.4
CCCN1C(=O)c2ccc(C(=O)NCc3ccco3)cc2C1=O	-2.2
Cc1ccc(/C=C/C(=O)c2ccccc(=O)c2O)cc1C	-3.3
NC(=O)CSc1nnc(Cc2cccs2)n1C1CCCCC1	-1.7
O=C1c2ccccc2C2NC(=O)C3(CCCCC3)N12 (stereo not drawn)	-1.3
O=C(CSc1nnnn1-c1cccc2ccccc12)Nc1ccc(C(=O)O)cc1	-2.6
CCOC(=O)C(=O)N1CCN(c2cc3c(cc2[N+](=O)[O-])n(C)c(=O)n3C)CC1	-2.2
COC(=O)c1ccc(OC)c(CSc2nnc(COc3ccc(OC)cc3)o2)c1	0.7
COc1ccc(/C=N\NC(=O)C2COc3ccccc3O2)cc1O (stereo not drawn)	-0.4
COCc1nnc(NC(=O)C2CCN(C(=O)c3ccco3)CC2)s1	-2.4
Cc1cc(OC(=O)c2cccc(F)c2)c([N+](=O)[O-])c(=O)[nH]1	0.0
COc1cc(OC)cc(OCC(O)Cn2ccnc2C)c1 (stereo not drawn)	-0.6
O=C(Cc1c(F)cccc1Cl)NCCc1c[nH]c2ccccc12	-0.3

# Quoted from the listing:
# STK33 kinase inh result of `CCCC1=C(C(=O)OCC)C(c2ccc(OC)c(CSc3ccccn3)c2)C(C#N)=C(N)O1` (stereo not drawn) stands at -1.9
# STK33 kinase inh result of `COC(=O)c1ccc(OC)c(CSc2nnc(COc3ccc(OC)cc3)o2)c1` stands at 0.7

# (next part)
compound	STK33 kinase inh
Cc1nn(C)c(Cl)c1/C=C/C(=O)O	2.4
COc1ccc(S(=O)(=O)N(C)CC(=O)NC2CCCC2)cc1OC	-3.0
O=C(CCNc1cc(Cl)cc(Cl)c1)c1ccco1	-1.6
COC(=O)[C@@H](Cc1ccccc1)NC(=O)[C@H]1CCC(=O)N1C(=O)OCc1ccccc1	-1.9
CCN(CC(=O)Nc1ccccc1OC)CC(=O)Nc1ccccc1C(F)(F)F	-3.2
COC(=O)c1sc(NC(=O)c2c(OC)cccc2OC)c(C#N)c1C	-1.9
CCOc1ccc(C(C)=O)cc1Cn1c(=O)oc2ccccc21	0.7
COCCCN(C(=O)CCSc1ccc(F)cc1)c1c(N)n(Cc2ccccc2)c(=O)[nH]c1=O	-1.5
Cc1ccc(-n2cc(CNCCCn3cccn3)c(-c3cccc(C)c3)n2)cc1	0.0
CC1(C(=O)O)CCC(C(=O)NNC(=O)c2ccccc2Cl)C1(C)C (stereo not drawn)	-0.4
O=C(c1ccc(OC2CCN(CCc3ccccc3)CC2)cc1)N1CCC(CO)CC1	-2.2
CCC(=O)c1ccc(OCC(=O)OCC(=O)NC2CCCCCC2)cc1	-0.2
O=C1N=C2SCCN2/C1=C\c1c(Cl)cccc1Cl	-0.4
CCCc1nc(NCc2ccc3c(c2)OCO3)c2nnn(Cc3ccccc3Cl)c2n1	1.0

# This is a subset, and most or all hits are left out here.
